# From PubChem BioAssay
# PrP UTR inh – inhibition of PrP 5' UTR reporter expression | cell-based PrP 5' UTR mRNA reporter, plate reader | inhibition, % (concentration not given with the values) | 0.35% of 340,000 active | AID 488862;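 active = every replicate at 50% or more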;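 also: 0 = median of the neutral control wells; tested in H4 reporter cells; numbers are from one replicate; inactives centre near -14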
# Sa RN4220 lethal – kills Staphylococcus aureus RN4220 | S. aureus RN4220 growth, OD600, 16 h | 0.33% of 330,000 active | inhibition, % (concentration not given with the values) | AID 1259311;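 active = z-score of -3 or lower and OD600 up to 0.18 on both plates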;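 also: plate controls were untreated cells for no effect and reference antibiotic for full effect; stock transfer was 100 nL into about 80 µL; one replicate is shown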
# Mtb hypoxia rep – reduces hypoxia-regulated biosensor signal in M. tuberculosis; M. tuberculosis hypoxia-regulated fluorescent reporter, fluorescence; fluorescence inhibition, % (concentration not given with the values); 0.1% of 300,000 active;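 active = 35 to 45% if threefold the growth effect, above 45% if 1.5-fold the growth effect; inactive = the rest, general growth blockers included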;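 also: wells of about 50 µL received 100 nL stock; 0% = vehicle wells and 100% = reference inhibitor wells; whole bacteria with a GFP reporter of the hypoxia response; strong numbers were not always called active; many hits fall short of the cut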
# ugtP null kill – compounds lethal to S. aureus RN4220 ugtP deletion mutant. OD600 growth, 16 h; some inactives read as strong as hits. 0.54% of 330,000 active. growth inhibition, % (no concentration beside the values);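 active = z-score under -3 and OD600 up to 0.15 on both plates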;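 also: plate controls were untreated wells for no effect and antibiotic for full effect; wells of about 80 µL received 100 nL stock; the first replicate is given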
# BJeLR lethal – kills HRASV12-expressing BJeLR cells; BJeLR (HRASV12) viability, CellTiter-Glo ATP luminescence, 48 h; reference of the scale not given here; inhibition, % (test concentration not listed); 0.17% of 300,000 active; AID 1554;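 active = replicate mean above 50%; inconclusive = above 50% but judged a plate artefact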;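 also: 50 nL library stock added to about 25 µL; numbers are from one replicate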
# Autofluor counter – counter-screen for toxin protease inhibitors: compound fluorescence | compound autofluorescence counterscreen, microsphere flow cytometry; active compounds read high | fluorescence intensity (no concentration beside the values) | 3.1% of 360,000 active | AID 624483;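 active = at least 3 SD above the mean of all compounds, about 16000 in these data; inconclusive = too few beads counted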;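 also: 100 nL of 1 mM stock went into each well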
# Mtb hypoxia rep growth – further read-out of Mtb hypoxia rep, marked with its call; growth inhibition, %; measured here: M. tuberculosis growth (absorbance);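 0% = vehicle and 100% = reference antibiotic; read after six days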
# Starred values were filed as active, the others as inactive; ? = inconclusive; · = not tested or not shown.
# The first 7 compounds as a preview:
SMILES,PrP UTR inh,Sa RN4220 lethal,Mtb hypoxia rep,Mtb hypoxia rep growth,ugtP null kill,BJeLR lethal,Autofluor counter
CCOc1ccc(C=NNC(=O)c2ccc(O)cc2)cc1CN1CC2CC(C1)c1cccc(=O)n1C2 (stereo unspecified),·,4.9,8,6,-2,·,·
Cc1noc(C)c1CSCC(=O)OCC(=O)Nc1sccc1C#N,-22,0.3,11,4,0,-7,7079
Cc1nnc(CN(C)C(=O)c2cc(COc3ccc(F)cc3Cl)on2)o1,-36,-1.6,14,9,12,-11,6138
Cc1c(Oc2cc(NN3CCCCC3)c([N+](=O)[O-])cc2[N+](=O)[O-])cccc1[N+](=O)[O-],-25,1.1,20,3,5,8,3874
Cc1cc(NC(=O)CCC(=O)N(CC(=O)NCC2CCCO2)c2ccc(C(C)C)cc2)no1 (stereo unspecified),-2,3.2,0,7,13,-12,5446
CCc1ccc(N2CC(C(=O)NN=Cc3ccccc3OC)CC2=O)cc1 (stereo unspecified),·,2.0,7,-1,-1,·,·
CN(C)S(=O)(=O)c1cccc(NC(=S)NN=Cc2ccc(O)c(O)c2O)c1,·,14,19,4,-3,·,·

# Main list, repeating the preview:
SMILES,PrP UTR inh,Sa RN4220 lethal,Mtb hypoxia rep,Mtb hypoxia rep growth,ugtP null kill,BJeLR lethal,Autofluor counter
CCOc1ccc(C=NNC(=O)c2ccc(O)cc2)cc1CN1CC2CC(C1)c1cccc(=O)n1C2 (stereo unspecified),·,4.9,8,6,-2,·,·
Cc1noc(C)c1CSCC(=O)OCC(=O)Nc1sccc1C#N,-22,0.3,11,4,0,-7,7079
Cc1nnc(CN(C)C(=O)c2cc(COc3ccc(F)cc3Cl)on2)o1,-36,-1.6,14,9,12,-11,6138
Cc1c(Oc2cc(NN3CCCCC3)c([N+](=O)[O-])cc2[N+](=O)[O-])cccc1[N+](=O)[O-],-25,1.1,20,3,5,8,3874
Cc1cc(NC(=O)CCC(=O)N(CC(=O)NCC2CCCO2)c2ccc(C(C)C)cc2)no1 (stereo unspecified),-2,3.2,0,7,13,-12,5446
CCc1ccc(N2CC(C(=O)NN=Cc3ccccc3OC)CC2=O)cc1 (stereo unspecified),·,2.0,7,-1,-1,·,·
CN(C)S(=O)(=O)c1cccc(NC(=S)NN=Cc2ccc(O)c(O)c2O)c1,·,14,19,4,-3,·,·
CC1(OC(=O)C2CCCC2)C(=O)C=C2C=C(c3ccsc3)N(c3ccccc3)C=C2C1=O (stereo unspecified),-10,2.7,4,10,-4,4,3279
O=C(CS(=O)(=O)c1ccccc1)c1ccc2c(c1)OCCO2,-23,2.1,·,·,1,2,2300
CCc1noc(C)c1C(=O)NCCN1C(=O)S/C(=C\c2ccc(OC)cc2)C1=O,-53,1.5,-5,10,-4,-8,5253
Cc1cccc(NS(=O)(=O)c2nnc(NC(=O)c3ccccc3F)s2)c1,-18,11,-3,3,6,14,6819
CCn1cc(C(=O)NCC(=O)OC)c2cc(OC)c(OC)cc2c1=O,-26,4.8,3,1,4,3,10694
Cc1cccc(CCNS(=O)(=O)c2ccc3c(c2)NC(=O)CO3)c1,-3,3.9,12,6,5,1,6094
CCn1cc(CNCc2c(C(=O)N3CCCCC3)nc3c(C)cccn23)cn1,0,-0.6,-1,1,8,-1,2126
CCCCC1CC1C(=O)Nc1ncc2c(n1)CC(C)(C)CC2=O (stereo unspecified),-17,13,9,2,-7,3,14162
Cc1ccccc1OCC(O)Cn1c(SC(C)C)nc2c1c(=O)[nH]c(=O)n2C (stereo unspecified),-23,3.5,7,7,3,2,5939
CN(C)[C@@H]1CCC[C@@H]1OC(=O)C(c1ccccc1)c1ccccc1,8,1.9,-3,1,0,14,1903
O=C(Cc1cccs1)Nc1ccccc1F,-15,0.9,10,5,5,-1,3372
COCCOC(=O)c1c(C)oc2ccc(O)c(CN3CCC(C)CC3)c12,-22,1.5,4,2,-1,-8,10892
O=c1cc(CN2CCCCC2)nc(C2CC2)[nH]1,-14,1.9,-2,12,2,10,3300
Cc1nc(C)c(-c2ccc(SCc3ccccc3F)nn2)s1,-49,4.6,9,5,2,-1,5531
O=C1c2cccnc2C(=O)N1c1cccc(-c2nc3ccccc3o2)c1,-1,3.3,·,·,-4,-1,2173
COc1ccc(CCNC(=O)[C@H](CC(C)C)NC(=O)N2CCn3c2nc2ccccc23)cc1OC,7,-0.5,-2,12,-4,-1,5585
O=C(CCNC(=O)c1ccc(Br)cc1)NCc1ccccc1F,-5,0.2,3,-1,13,-10,4264
CCOC(=O)c1nc(C(=O)NCc2ccc(C)cc2)nc2ccccc12,-14,5.7,6,-1,3,·,3837
CCN(Cc1ccc(OC)c(F)c1)C(=O)c1oc2ccccc2c1COC,-35,5.4,9,4,-3,0,3790
Fc1ccc(C2NCCn3cccc32)cc1 (stereo unspecified),-25,5.1,·,·,5,9,·
C#CCOCCOCCOCCNc1nc(N2CCOCC2)nc(N2CCN(C(=O)C(C(C)CC)n3cc(C(N)CO)nn3)CC2)n1 (stereo unspecified),·,0.4,9,1,-9,·,·
CC(C)(C)OC(=O)NCCC(=O)NN=Cc1ccc2ncccc2c1,·,0.5,15,11,11,·,·
CC(C)(C)C(=O)Nc1nc(=S)ss1,-33,67,·,·,39,8,2771
CCN(CC)C(=O)CSc1nc(C)cc(C)n1,-29,0.5,2,7,-3,-6,4501
Cc1noc(C)c1S(=O)(=O)N1CCC(C(=O)NC2CCCc3ccccc32)CC1 (stereo unspecified),-1,-5.0,-1,9,-1,-5,4571
COc1cccc(OC(=O)c2cc3ccccc3oc2=O)c1,-10,-0.7,3,9,11,-14,4272
CC(/C=N/n1c(C2CCCCC2)n[nH]c1=S)=C\c1ccccc1,-21,·,·,·,·,-5,10224
COc1ccc(C(=O)NCc2ccccc2CN2CCCC2)cc1S(=O)(=O)N1CCOCC1,-23,5.2,1,2,0,·,6579
CCCS(=O)(=O)N1CCN(C(=O)c2cccnc2)CC1,-15,4.1,9,7,-3,-1,3526
N#Cc1c(-c2ccccc2)nc(SCc2nc(N)nc(N3CCCCC3)n2)[nH]c1=O,-14,7.4,11,8,8,5,3796
CCOc1cc(-c2cc(-c3ccc(OC)cc3)nc(N)c2C#N)ccc1O,-17,29,7,12,4,1,24332*
O=C(NC(=S)Nc1ccc(CN2CCOCC2)cc1)c1ccccc1[N+](=O)[O-],-20,-0.4,-7,0,4,1,2249
Cc1cccc(C)c1NC(=O)CNC(=O)c1c(C)nn(-c2ccccc2)c1C,-19,1.8,4,-4,1,-11,·
CCCN1CCN(C(=S)Nc2ccc3nc(N4CCN(CC)CC4)cc(C)c3c2)CC1,-32,2.3,-5,-2,-3,4,4251
CN(C)c1ccc(CNCc2cccnc2)cc1,·,5.9,14,-5,6,2,4452
Cc1cc(C)cc(N(CC(=O)NCc2ccco2)C(=O)CCC(=O)Nc2nccs2)c1,-5,5.2,3,-1,4,0,3395
CCOc1cc(CNCc2cccnc2)ccc1OCC(=O)NC(C)(C)C,-34,-1.0,-2,5,-14,-3,4158
Fc1ccccc1OCCCn1ccnc1,-27,0.7,9,11,-2,-4,4493
COc1ccc(NC(=O)CSc2nc3[nH]c(=O)[nH]c(=O)c3s2)cc1OC,-5,1.4,-6,11,2,-14,3348
CC1CC(C)CN(C(=O)COC(=O)c2ccc3ncsc3c2)C1 (stereo unspecified),2,4.6,-12,-3,-2,·,2797
COc1cc(CN(C)Cc2cccc3ccccc23)cc([N+](=O)[O-])c1O,-17,2.5,11,-3,3,1,4506
CCNC(=S)NN=C(C)c1ccc2ccccc2c1,·,5.1,5,11,10,·,·
O=C(CN1C(=O)c2cccc([N+](=O)[O-])c2C1=O)OCC(=O)N1CCCCC1,-16,2.3,-6,-2,3,-5,?
O=C(NCC(=O)N(c1ccccc1)C(C(=O)NC1CCCC1)c1ccncc1)c1cccs1 (stereo unspecified),-9,0.8,0,6,6,3,3881
COc1cc(C=NNC(=O)c2nonc2C)ccc1O,·,-5.8,-13,-19,0,·,·
Cc1[nH]c2ccccc2c1CCN(Cc1cccnc1)C(=S)NC(C)(C)C,-15,5.0,-4,16,-15,5,3455
CC(C)NC(=S)n1cc(C(=O)c2cc(Cl)cc(Cl)c2O)cn1,-11,1.1,2,-3,10,1,6098
CNCc1ccc(OCc2ccccc2)c(OC)c1,-33,2.4,4,-5,3,-17,8819
Oc1oc(-c2ccc(Br)cc2)nc1C=Nc1ccccn1,·,5.9,7,8,0,·,·
Cc1ccc2[nH]c(=O)c(-c3noc(CC(C)C)n3)cc2c1,-18,7.5,-7,0,1,-5,4462
COc1ccc(C2=CN(Cc3ccccc3)CCC2=O)cc1,-5,-2.0,2,15,-12,·,3809
COCCn1cc(C(=O)c2ccccc2OCC(=O)Nc2cc(C)on2)cc(C#N)c1=O,-19,-15,0,4,-4,6,2770
CCOC(=O)C(Cc1ccccc1)NC(=O)CCC(=O)c1ccc(OC)cc1 (stereo unspecified),-5,6.2,-5,-15,1,-4,2922

# (list continues)
SMILES,PrP UTR inh,Sa RN4220 lethal,Mtb hypoxia rep,Mtb hypoxia rep growth,ugtP null kill,BJeLR lethal,Autofluor counter
CCC(=O)NC1(C(F)(F)F)C(=O)Nc2c1c(=O)n(C)c(=O)n2C (stereo unspecified),-20,5.4,5,7,-1,-3,23514*
COc1cc(OC)cc(C(=O)N[C@H](C(=O)OCC(=O)N2CCc3ccccc32)C(C)C)c1,-10,0.2,4,10,11,6,4020
N#Cc1nc(COc2ccccc2)oc1N1CCCC1,-48,8.0,0,11,6,3,3035
C/C(=N/NC(=O)c1cccs1)c1ccco1,-41,·,·,·,·,-4,2451
O=C(/C=C/c1ccc(F)cc1)NC(=S)N1CCN(Cc2ccccc2)CC1,-14,5.5,15,4,15,-3,6054
Brc1ccccc1OCCCN1CCOCC1,-30,6.3,6,2,11,4,23079*
O=C(N/N=C/c1ccc(OCC(=O)N2CCCCC2)cc1)c1ccccc1O,-23,·,·,·,·,-1,1912
CC1=C(C(=O)OC(C)C)C(c2ccc(N(C)C)cc2)C2=C(CC(C)(C)CC2=O)N1 (stereo unspecified),-18,-0.2,-5,0,8,-10,4515
C/C(CC(=O)Nc1cc(C)ccn1)=N\NC(=O)c1ccncc1,-17,·,·,·,·,-5,4318
CN(Cc1nccs1)C(=O)c1ccc(OC2CCN(CCc3ccccc3)CC2)cc1,-12,3.3,3,5,9,5,5917
CC(=O)Oc1ccc(C(=O)Nc2ccc(C3(C#N)CCCC3)cc2)cc1,-45,4.6,-7,-4,5,10,·
CCOC(=O)c1sc(NC(=S)NC(=O)c2ccc(OC)cc2)nc1C,-49,7.6,3,9,22,-2,3670
CCC(=O)Nc1nnc(-c2ccccn2)o1,-28,0.3,-1,-3,0,-9,2530
NC(=NOC(=O)CCCN1C(=O)c2ccccc2C1=O)c1ccc(Br)cc1,·,2.1,11,7,2,·,·
COc1ccc(C(C)(C)C)cc1NC(=O)CSc1ncn[nH]1,-44,2.6,-1,-2,4,·,?
Cn1c(CC(=O)Nc2ccccc2Cl)nnc1SCC(=O)Nc1nncs1,-34,2.5,0,-4,9,-10,2836
CC(=NNC(=O)CNc1ccccc1Cl)C(C)(C)C,·,4.6,4,1,3,·,·

# Random excerpt: 7 compounds from above
SMILES,PrP UTR inh,Sa RN4220 lethal,Mtb hypoxia rep,Mtb hypoxia rep growth,ugtP null kill,BJeLR lethal,Autofluor counter
COc1ccc(C(C)(C)C)cc1NC(=O)CSc1ncn[nH]1,-44,2.6,-1,-2,4,·,?
O=C(/C=C/c1ccc(F)cc1)NC(=S)N1CCN(Cc2ccccc2)CC1,-14,5.5,15,4,15,-3,6054
Brc1ccccc1OCCCN1CCOCC1,-30,6.3,6,2,11,4,23079*
CCOC(=O)c1sc(NC(=S)NC(=O)c2ccc(OC)cc2)nc1C,-49,7.6,3,9,22,-2,3670
CC(=O)Oc1ccc(C(=O)Nc2ccc(C3(C#N)CCCC3)cc2)cc1,-45,4.6,-7,-4,5,10,·
N#Cc1nc(COc2ccccc2)oc1N1CCCC1,-48,8.0,0,11,6,3,3035
Cn1c(CC(=O)Nc2ccccc2Cl)nnc1SCC(=O)Nc1nncs1,-34,2.5,0,-4,9,-10,2836
